Screening data from PubChem BioAssay.
D2 agonist = Beta-Arrestin HTS for Positive Allosteric Modulators of the Human D2 Dopamine Receptor: Agonists | D(2) dopamine receptor (Homo sapiens), P14416 | DiscoveRx PathHunter D2 beta-arrestin, luminescence, 90 min; 100% = 57 uM dopamine signal | activation, % (no concentration beside the values) | 360,000 compounds, 0.084% hits; in the data active = activation above about 40%; inconclusive = about 15% to 40%; inactive = below about 15%; also: compound concentration not given in the record; the text of the record calls up to 30% inactive
Target sequence (P14416 whole entry, looked up): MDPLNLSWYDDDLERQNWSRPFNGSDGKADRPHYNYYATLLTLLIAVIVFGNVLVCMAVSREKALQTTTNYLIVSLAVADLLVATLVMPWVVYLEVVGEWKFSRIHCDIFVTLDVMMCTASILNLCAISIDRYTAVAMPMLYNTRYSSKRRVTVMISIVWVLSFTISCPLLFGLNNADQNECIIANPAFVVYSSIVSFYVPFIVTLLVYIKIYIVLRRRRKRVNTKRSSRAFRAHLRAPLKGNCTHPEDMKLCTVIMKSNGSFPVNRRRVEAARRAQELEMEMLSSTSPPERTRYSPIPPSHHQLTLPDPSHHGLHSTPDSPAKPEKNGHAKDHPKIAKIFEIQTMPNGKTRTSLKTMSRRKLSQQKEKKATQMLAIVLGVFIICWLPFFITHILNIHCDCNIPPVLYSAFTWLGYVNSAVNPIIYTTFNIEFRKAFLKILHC
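Agonist mode: compounds alone added to overnight-plated D2 PathHunter cells for 90 min at 37 C, with 57 uM final dopamine (EC100) defining full response. Beta-arrestin recruitment detected by chemiluminescent reagent, read after 1 h at ambient temperature.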
D2 PAM = Beta-Arrestin HTS for Positive Allosteric Modulators of the Human D2 Dopamine Receptor: Potentiators; D(2) dopamine receptor (Homo sapiens), P14416; DiscoveRx D2 beta-arrestin cells, luminescence, 90 min; 100% = 57 uM dopamine signal; potentiation, % (concentration not given with the values); 360,000 compounds, 0.23% hits; active = potentiation of 50% or more; inconclusive = 30% to 50%; inactive = 30% or less;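 also: tested on top of an EC20 dose of dopamine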
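PathHunter beta-arrestin assay in DiscoveRx D2 cells. Compounds were added with an EC20 of dopamine (50 nM final) for 90 min at 37 deg C. Luminescence was read 1 h after detection reagent, with 57 uM dopamine as the EC100 control.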
CtBP-E1A blk = qHTS Assay for Inhibitors of the CtBP/E1A Interaction | activity change, % (no concentration beside the values) | 340,000 compounds, 0.49% hits | AlphaScreen GST-E1A/His-CtBP binding, 1536-well; hits give low values; control for the full effect not named in the record; in the data active means activity change below about -65%; inconclusive means about -30% to -65%; inactive means above about -30%; also: % is scaled to controls: 0 for no effect and ±100 for the full control effect
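GST-E1A and His-tagged CtBP (125 nM each as 5X stock) were preincubated with pin-transferred compound for 2 h at 37 °C in the dark, then glutathione donor and nickel acceptor beads were added for 1 h before AlphaScreen reading.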
Six1-Eya2 inh = qHTS Assay for Inhibitors of the Six1/Eya2 Interaction; activity change, % (test concentration not listed); AlphaScreen GST-Six1/His-Eya2 binding, biochemical; hits give low values; control for the full effect not named in the record; 360,000 compounds, 0.56% hits; AID 651725, 2012; Homeobox protein SIX1 (Homo sapiens) + Protein phosphatase EYA2 (Homo sapiens), …; in the data active = activity change below about -65%; inconclusive = about -30% to -65%; inactive = above about -30%; also: % is scaled to controls: 0 for no effect and ±100 for the full control effect
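Compounds are tested against tagged Six1 and Eya2 proteins bridged by glutathione donor and nickel acceptor beads; after a one-hour incubation at 37 °C without light, AlphaScreen emission is recorded.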
TRPML1 agonist = qHTS for Agonists of the Human Mucolipin Transient Receptor Potential 1 (TRPML1); Mucolipin-1 (Homo sapiens), Q9GZU1; TRPML1-expressing cells, Ca2+ dye fluorescence, FDSS; host cell line not named in the record; reference of the full effect not given here; activation, % (test concentration not listed); 410,000 compounds, 0.12% hits; AID 624414, 2012; in the data active = activation above about 50%; inconclusive = about 30% to 50%; inactive = below about 30%; also: 0% is about no effect; the text of the record puts the active cut at 80%
Target sequence (Q9GZU1 whole entry, looked up): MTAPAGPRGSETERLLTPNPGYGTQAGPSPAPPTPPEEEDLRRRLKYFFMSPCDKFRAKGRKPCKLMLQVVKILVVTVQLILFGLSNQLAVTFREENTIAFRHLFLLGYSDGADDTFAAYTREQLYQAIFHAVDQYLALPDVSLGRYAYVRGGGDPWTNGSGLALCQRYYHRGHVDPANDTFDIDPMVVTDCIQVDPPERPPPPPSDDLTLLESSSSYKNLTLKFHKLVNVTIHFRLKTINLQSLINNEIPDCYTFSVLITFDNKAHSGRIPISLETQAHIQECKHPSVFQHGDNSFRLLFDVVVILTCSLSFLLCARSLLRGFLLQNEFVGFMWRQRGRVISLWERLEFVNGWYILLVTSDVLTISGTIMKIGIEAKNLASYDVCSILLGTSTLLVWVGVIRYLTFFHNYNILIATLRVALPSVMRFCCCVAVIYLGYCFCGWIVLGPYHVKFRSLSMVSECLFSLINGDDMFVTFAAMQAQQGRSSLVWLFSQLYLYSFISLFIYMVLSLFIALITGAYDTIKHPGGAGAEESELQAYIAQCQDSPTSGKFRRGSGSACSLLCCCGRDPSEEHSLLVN
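Tetracycline-induced TRPML1-DL cells are seeded and incubated overnight before loading with a no-wash Ca2+ dye and quencher. Agonist activity is taken from the 110 s fluorescence read following compound pin-transfer on an FDSS, before EC80 54-4 challenge.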
PINK1 modulator = A Quantitative High throughput Screen to Identify Chemical Modulators of PINK1 Expression; 410,000 compounds, 0.2% hits; PINK1 immunofluorescence, high-content cytometry, 24 h; Potency, µM (series often up to 76.6 µM), inactives show at the highest dose activation (PINK1 increase), most hits filed as activators; AID 624263, 2012; active = well fitted activation curve with a large enough effect; inconclusive = small, poorly fitted or top-dose-only effect; inactive = flat fitted curve, though single readings scatter; cell line not stated here;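 also: potency is read from the fitted curve at half-maximal effect; % of control where 0% means no effect; nearly all actives have a fitted effect of over 65% in size; a mitochondrial uncoupler was the plate control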
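A stable cell line was treated with compounds at 5 concentrations for 24 hours, with CCCP as control. PINK1 levels and mitochondrial localization were measured by immunofluorescence with mitochondrial, cell and nuclear markers after fixation, read by laser-scanning cytometry.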
* marks the source's active call; other numbers are inactive results; [ ] = dose if it differs, or a comment. Not a hit list. About 1.3% of those tested had a hit in this group.

What do the screens show for `O=C(Cc1ccc(Br)cc1)OCC(=O)N1CCc2ccccc2C1`?
D2 agonist: -2.6; D2 PAM: -8; CtBP-E1A blk: 6; Six1-Eya2 inh: 8; TRPML1 agonist: -0.5; PINK1 modulator: -2.2%

What do the screens show for `Cc1ccc(C(=O)c2nc(C(=O)NCCO)nc3ccccc23)cc1`?
D2 agonist: -6.5; D2 PAM: -17; CtBP-E1A blk: 4; Six1-Eya2 inh: -3; TRPML1 agonist: -1.0; PINK1 modulator: 0.0%

What do the screens show for `CCOC(=O)C1=C(CS(=O)(=O)c2ccccc2)NC(=O)NC1c1cc(OC)c(O)c(OC)c1` (stereo not drawn)?
D2 agonist: -1.9; D2 PAM: -6; CtBP-E1A blk: 3; Six1-Eya2 inh: 5; TRPML1 agonist: -0.3; PINK1 modulator: -1.7%

What do the screens show for `CC(CN1CCCC1)OC(=O)c1ccc(Cl)cc1` (stereo not drawn)?
D2 agonist: -4.3; D2 PAM: -4; CtBP-E1A blk: -5; Six1-Eya2 inh: -2; TRPML1 agonist: 0.6; PINK1 modulator: 2.6%

Results for O=C(CSc1ccccn1)Nc1ccc(F)c([N+](=O)[O-])c1 ?
D2 agonist: -0.4; D2 PAM: -17; CtBP-E1A blk: -12; Six1-Eya2 inh: 3; TRPML1 agonist: -0.8; PINK1 modulator: -0.2%

What do the screens show for `CCOC(=O)c1ccccc1-c1csc(NS(=O)(=O)c2ccc(Cl)cc2)n1`?
D2 agonist: -0.9; D2 PAM: -11; CtBP-E1A blk: -1; Six1-Eya2 inh: -4; TRPML1 agonist: 1.4; PINK1 modulator: -0.3%

What do the screens show for `CCC(NC(=S)Nc1ccccc1)C(=O)O` (stereo not drawn)?
D2 agonist: -1.3; D2 PAM: -18; CtBP-E1A blk: 1; Six1-Eya2 inh: 1; TRPML1 agonist: 0.9; PINK1 modulator: 2.0%

What do the screens show for `Cc1cc(C(=O)OCC(=O)N(CC(C)C)c2c(N)n(Cc3ccccc3)c(=O)[nH]c2=O)c2ccccc2n1`?
D2 agonist: -1.7; D2 PAM: 12; CtBP-E1A blk: -4; Six1-Eya2 inh: -2; TRPML1 agonist: 0.8; PINK1 modulator: -0.5%

What do the screens show for `CCOC(=O)NC(=O)CSc1nc2ccc(OCC)cc2[nH]1`?
D2 agonist: -1.1; D2 PAM: -10; CtBP-E1A blk: -2; Six1-Eya2 inh: -1; TRPML1 agonist: 4.1; PINK1 modulator: -1.3%

Results for Cc1[nH]c2ccc(F)cc2c1CCN(Cc1cccnc1)C(=S)Nc1ccccc1 ?
D2 agonist: -5.4; D2 PAM: -9; Six1-Eya2 inh: 0; TRPML1 agonist: 0.6; PINK1 modulator: 2.4%

How did CSc1ccc(CN2CCC(C)(Oc3ccc(F)cc3)C2)cc1 (stereo not drawn) do in these assays?
D2 agonist: 4.8; D2 PAM: -15; CtBP-E1A blk: -1; Six1-Eya2 inh: -16; TRPML1 agonist: -0.9; PINK1 modulator: 22%

What do the screens show for `COc1cccc(CC(NC(C)=O)C(=O)NC2CCN(S(=O)(=O)c3cccc4ccccc34)CC2)c1` (stereo not drawn)?
D2 agonist: 1.1; D2 PAM: -6; CtBP-E1A blk: 0; Six1-Eya2 inh: -2; TRPML1 agonist: -0.1; PINK1 modulator: 2.3%[38.3 µM]

How did CC(C)C(C)(C#N)NC(=O)COC(=O)C1CCN(S(=O)(=O)c2ccc3c(c2)OCCO3)CC1 (stereo not drawn) do in these assays?
D2 agonist: -6.3; D2 PAM: -2; CtBP-E1A blk: 0; Six1-Eya2 inh: 7; TRPML1 agonist: 0.1; PINK1 modulator: 0.3%

How did CCNc1nc(NOC)nc(OCC#N)n1 do in these assays?
D2 agonist: 1.0; D2 PAM: -8; Six1-Eya2 inh: 4; TRPML1 agonist: 0.3; PINK1 modulator: -1.3%

How did CCOC(=O)C1C(=O)OC2(CCCC2)C1C(=O)OCC (stereo not drawn) do in these assays?
D2 agonist: 1.3; D2 PAM: -10; CtBP-E1A blk: 0; Six1-Eya2 inh: 3; TRPML1 agonist: 0.3; PINK1 modulator: 0.1%[38.3 µM]

Results for CSc1ccc(/C=C/C(=O)OCC(=O)NCC2CCCO2)cc1 (stereo not drawn) ?
D2 agonist: 13; D2 PAM: -2; CtBP-E1A blk: -6; Six1-Eya2 inh: 7; TRPML1 agonist: 2.6; PINK1 modulator: 0.1%

What do the screens show for `CN(CC(=O)Nc1ccc(Cl)c(C(F)(F)F)c1)C(=O)C1(c2ccccc2)CC1`?
D2 agonist: -2.8; D2 PAM: -31; CtBP-E1A blk: 6; Six1-Eya2 inh: -3; TRPML1 agonist: 0.1; PINK1 modulator: 1.3%

What do the screens show for `NC(=O)c1ccsc1NC(=O)c1cccs1`?
D2 agonist: -0.3; D2 PAM: -2; CtBP-E1A blk: -18; Six1-Eya2 inh: -24; TRPML1 agonist: 0.4; PINK1 modulator: -0.7%

Results for CC(C(=O)O)N1c2cccc3cccc(c23)S1(=O)=O (stereo not drawn) ?
D2 agonist: 0.9; D2 PAM: 6; CtBP-E1A blk: -17; Six1-Eya2 inh: 8; TRPML1 agonist: 0.4; PINK1 modulator: -1.5%

Results for O=C(COc1ccc2c(c1)oc(=O)c1ccccc12)NCCCN1CCOCC1 ?
D2 agonist: -7.3; D2 PAM: -31; CtBP-E1A blk: inconclusive; Six1-Eya2 inh: inconclusive; TRPML1 agonist: -0.7; PINK1 modulator: -1.5%

Nothing new here: entries from further up.
What do the screens show for `CN(CC(=O)Nc1ccc(Cl)c(C(F)(F)F)c1)C(=O)C1(c2ccccc2)CC1`?
D2 agonist: -2.8; D2 PAM: -31; CtBP-E1A blk: 6; Six1-Eya2 inh: -3; TRPML1 agonist: 0.1; PINK1 modulator: 1.3%

What do the screens show for `NC(=O)c1ccsc1NC(=O)c1cccs1`?
D2 agonist: -0.3; D2 PAM: -2; CtBP-E1A blk: -18; Six1-Eya2 inh: -24; TRPML1 agonist: 0.4; PINK1 modulator: -0.7%

More records follow.
What do the screens show for `CC(C)c1nc(NCCN2CCOCC2)c(C#N)c2c1COC(C)(C)C2`?
D2 agonist: -0.5; D2 PAM: -11; CtBP-E1A blk: -3; Six1-Eya2 inh: 0; TRPML1 agonist: 1.9; PINK1 modulator: -1.0%

Results for C[C@H]1CN([C@@H](C)CO)C(=O)CCCn2nncc2CO[C@@H]1CN(C)C(=O)NC1CCCCC1 ?
D2 agonist: 1.9; D2 PAM: 4; CtBP-E1A blk: 1; Six1-Eya2 inh: 9; TRPML1 agonist: -0.3; PINK1 modulator: 0.9%

Results for O=C(NCCN1CCOCC1)c1cc2n(n1)C(C(F)(F)F)CC(c1ccc(F)cc1)N2 (stereo not drawn) ?
D2 agonist: 2.9; D2 PAM: -5; CtBP-E1A blk: 2; Six1-Eya2 inh: -1; TRPML1 agonist: 1.9; PINK1 modulator: inconclusive

How did Cn1cc(S(=O)(=O)N2CCN(c3cccc(Cl)c3)CC2)c(=O)n(C)c1=O do in these assays?
D2 agonist: 12; D2 PAM: 0; CtBP-E1A blk: 6; Six1-Eya2 inh: 3; TRPML1 agonist: 0.8; PINK1 modulator: -2.0%

How did O=C(O)C1CCCCC1C(=O)N1CC=C(c2ccccc2)CC1 (stereo not drawn) do in these assays?
D2 agonist: inconclusive; D2 PAM: -16; CtBP-E1A blk: 1; Six1-Eya2 inh: -5; TRPML1 agonist: -0.3; PINK1 modulator: 1.0%

Results for Cc1cc(C)nc(Sc2ccc(C=O)cc2[N+](=O)[O-])n1 ?
D2 agonist: -2.0; D2 PAM: 2; CtBP-E1A blk: 2; Six1-Eya2 inh: -1; TRPML1 agonist: -0.7; PINK1 modulator: 1.9%

How did CCOC(=O)C1CCCN(C(=O)c2ccc3nc(-c4ccccc4)c(-c4ccccc4)nc3c2)C1 (stereo not drawn) do in these assays?
D2 agonist: -3.0; D2 PAM: -5; Six1-Eya2 inh: -17; TRPML1 agonist: 1.6; PINK1 modulator: 2.9%

How did Cn1cccc1C(=O)OCC(=O)NCCc1ccc(S(N)(=O)=O)cc1 do in these assays?
D2 agonist: -2.8; D2 PAM: -4; CtBP-E1A blk: 2; Six1-Eya2 inh: 24; TRPML1 agonist: 0.9; PINK1 modulator: 0.4%

How did CCc1nc2c(OCCn3cccc3)cccn2c1N(C)C(=O)CC(C)C do in these assays?
D2 agonist: 2.4; D2 PAM: 2; CtBP-E1A blk: -3; Six1-Eya2 inh: -4; TRPML1 agonist: -0.5; PINK1 modulator: 1.5%

What do the screens show for `S=C(Nc1ccc(Cl)c(Cl)c1)NC1CCCCC1`?
D2 agonist: 3.5; D2 PAM: 2; CtBP-E1A blk: 4; Six1-Eya2 inh: 0; TRPML1 agonist: 0.8; PINK1 modulator: inconclusive

How did CN(C)/C=C/C(=O)c1c(F)cccc1F do in these assays?
D2 agonist: -3.6; D2 PAM: -17; Six1-Eya2 inh: 6; TRPML1 agonist: -0.1; PINK1 modulator: 2.7%

What do the screens show for `O=C(NC(=S)N1CCOCC1)c1ccccc1Cl`?
D2 agonist: -1.0; D2 PAM: 11; CtBP-E1A blk: 4; Six1-Eya2 inh: 2; TRPML1 agonist: -0.5; PINK1 modulator: -0.3%

What do the screens show for `CCN(CC)C(=O)C1=C(C)N(Cc2ccc(F)cc2)C(=O)C(CC(=O)NCc2cccc3ccccc23)C1` (stereo not drawn)?
D2 agonist: -2.7; D2 PAM: -1; CtBP-E1A blk: -3; Six1-Eya2 inh: 9; TRPML1 agonist: 1.1; PINK1 modulator: -1.5%

How did CCOc1ccc(NC(=O)CN(C)C(=O)c2cccnc2Sc2ccccc2Cl)cc1OCC do in these assays?
D2 agonist: -0.7; D2 PAM: -18; CtBP-E1A blk: -5; Six1-Eya2 inh: -5; TRPML1 agonist: -0.1; PINK1 modulator: -1.1%

Results for CC1=NN(C(=O)c2ccccc2Cl)C(O)(c2ccccc2)C1 (stereo not drawn) ?
D2 agonist: -3.2; D2 PAM: -4; CtBP-E1A blk: -1; Six1-Eya2 inh: 7; TRPML1 agonist: 0.4; PINK1 modulator: 0.1%

How did O=C(O)CC/C(=N\NC(=O)c1ccc(F)cc1)c1ccc(Br)cc1 do in these assays?
D2 agonist: -4.4; D2 PAM: -11; CtBP-E1A blk: -5; Six1-Eya2 inh: -6; TRPML1 agonist: -0.1; PINK1 modulator: -0.3%

What do the screens show for `Cc1ccc(NC(=S)NC(=O)c2ccc(-c3ccc(Cl)cc3)o2)c(O)c1`?
D2 agonist: -3.9; D2 PAM: -37; CtBP-E1A blk: 0; Six1-Eya2 inh: -2; TRPML1 agonist: -0.5; PINK1 modulator: 3.3%
